Cruzain Triton: cruzain (T. cruzi) inhibition with detergent | P25779 | purified cruzain, Z-FR-AMC fluorescence, 0.01% Triton | Potency, µM, inactives show max response, negative = inhibition, most hits filed as inhibitors | actives 0.43% (n = 200,000) | AID 1478; active = well fitted curve in the direction sought with a large enough effect; inconclusive = small, poorly fitted or top-dose-only effect, or another doubt; inactive = no such curve, though single readings can be large; an effect the other way counts as inactive or inconclusive;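 note: plate controls were neutral wells for no effect and buffer without enzyme for full effect; nearly all actives have a fitted effect of over 40% in size; top concentration of the series not given in the record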
Target sequence (P25779 123-467 limits assumed): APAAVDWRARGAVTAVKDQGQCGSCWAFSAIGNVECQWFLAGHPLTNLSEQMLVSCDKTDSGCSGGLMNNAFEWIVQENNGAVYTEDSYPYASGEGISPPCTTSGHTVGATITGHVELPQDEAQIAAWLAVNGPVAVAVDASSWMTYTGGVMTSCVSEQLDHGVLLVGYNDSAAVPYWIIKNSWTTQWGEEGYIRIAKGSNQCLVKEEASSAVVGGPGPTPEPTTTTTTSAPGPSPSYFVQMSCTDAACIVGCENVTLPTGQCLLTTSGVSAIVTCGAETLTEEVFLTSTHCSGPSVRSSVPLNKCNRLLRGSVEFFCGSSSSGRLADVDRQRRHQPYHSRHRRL
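Cysteine protease activity tested under reducing, mildly acidic conditions (100 mM sodium acetate pH 5.5, 5 mM DTT) plus 0.01% Triton X-100. Cruzain 1.5 nM; substrate Z-FR-AMC 2 uM; 15 min compound preincubation at room temperature.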
SARS PLP yeast: blocks SARS-CoV papain-like protease in a yeast assay. Potency, µM (titrated, usually from 32.9 µM), for inactives: top-dose activity, positive = growth rescue. S. cerevisiae expressing SARS-CoV PLpro, growth rescue; control for the full effect not named in the record. actives 0.19% (n = 330,000). AID 485353; note: 0% is about no effect; nearly all actives have a fitted effect of over 55% in size; growth read by luminescence after 48 h
2A StopGo: lowers the luciferase signal of an FMDV 2A StopGo reporter | human cells with a luciferase reporter of 2A StopGo recoding; control for the full effect not named in the record | Potency, µM (titrated, usually from 57.9 µM), for inactives: top-dose signal change, negative = less light | actives 1.2% (n = 410,000) | AID 1159524; active = well fitted falling curve with a large enough effect; inconclusive = small, poorly fitted or top-dose-only effect; inactive = no such curve, though single readings can be large or run the other way; tested in HEK293T cells; note: % is set by controls: 0 for no effect and ±100 for the full control effect; nearly all actives have a fitted effect of over 45% in size; luciferase light after 4 h
Marburg entry inh: Marburg virus entry inhibition | actives 1.8% (n = 300,000) | Marburg virus pseudotyped entry inhibition, cell reporter; control for the full effect not named in the record; about a third of the inactives were read at about 46 µM | Potency, µM (doses to about 37.8 µM), inactives show top-dose activity change, negative = inhibition, actives largely listed as inhibitors | AID 540276; active = well fitted inhibition curve with a large enough effect; inconclusive = small, poorly fitted or top-dose-only effect, or effect the other way; inactive = flat fitted curve, though single readings scatter; tested in HEK293 cells; about a fifth of its hits are not listed in these tables; note: % is set by controls: 0 for no effect and ±100 for the full control effect; luciferase read-out
Cruzain noTriton: inhibitors of Trypanosoma cruzi cruzain without detergent; purified cruzain, Z-FR-AMC fluorescence, no detergent; AID 1476; actives 2.3% (n = 200,000); P25779; Potency, µM, without a hit: max response, negative = inhibition, most hits filed as inhibitors; active = well fitted curve in the direction sought with a large enough effect; inconclusive = small, poorly fitted or top-dose-only effect, or another doubt; inactive = no such curve, though single readings can be large; an effect the other way counts as inactive or inconclusive;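 note: plate controls were enzyme without inhibitor for no effect and buffer without enzyme for full effect; nearly all actives have a fitted effect of over 40% in size; top concentration of the series not given in the record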
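Detergent-free condition (0.00005% Triton X-100) in acetate buffer pH 5.5 with DTT. 1.5 nM enzyme and compound were pre-mixed 15 min, then 2 uM Z-FR-AMC substrate added; reaction progress from fluorescence change between first and third reads (60 s).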
NS1 inh: influenza NS1 inhibition; S. cerevisiae slowed by influenza A NS1, growth recovery by OD600; Potency, µM (doses to about 46.1 µM), for inactives: top-dose activity, positive = more growth; actives 0.4% (n = 270,000); AID 2326; note: actives are rising curves; nearly all actives have a fitted effect of over 50% in size
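A cell-based growth assay was used: compounds that relieve NS1-induced slow growth of budding yeast raise OD600. Assay medium was yeast nitrogen base with ammonium sulphate and -URA supplement, pH 6.0, with 2% galactose.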
LASV entry inh: Lassa virus entry inhibition | Lassa virus pseudotype entry inhibition, cell reporter; control for the full effect not named in the record | Potency, µM (highest dose often 37.9 µM), for the others: at the highest dose activity change, negative = inhibition, actives largely listed as inhibitors | actives 1.2% (n = 300,000); active means well fitted inhibition curve with a large enough effect; inconclusive means small, poorly fitted or top-dose-only effect, or effect the other way; inactive means flat fitted curve, though single readings scatter; tested in HEK293 cells; note: % is set by controls: 0 for no effect and ±100 for the full control effect; nearly all actives have a fitted effect of over 50% in size; luciferase read-out
RE007 growth inh: less growth of the S. pombe RE007 Vpr strain | S. pombe RE007 Vpr strain, BacTiter-Glo ATP luminescence, 24 h; control for the full effect not named in the record | Potency, µM (titrated, usually from 92.2 µM), inactives show top-dose activity change, negative = less growth | actives 0.21% (n = 360,000); active = well fitted falling curve with a large enough effect; inconclusive = small, poorly fitted or top-dose-only effect; inactive = no such curve, though single readings can be large or run the other way;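 note: % is set by controls: 0 for no effect and ±100 for the full control effect; nearly all actives have a fitted effect of over 50% in size; the assay follows cell death caused by Vpr and the record does not say whether a fall means rescue or toxicity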
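Fission yeast RE007 carrying one integrated HIV-1 vpr copy, seeded at OD 0.01 in PMG+AL medium with 23 nL pinned compound. Grown 24 h at 30 degrees; viability read by BacTiter-Glo luminescence after 5 min.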
* = called active by the depositor; [ ] = remark or other dose. Unless noted, calls come from the whole dose curve; as a rule, active means well fitted rising curve with a large enough effect; inconclusive means small, poorly fitted or top-dose-only effect; inactive means no such curve, though single readings can be large or run the other way. Potency is the fitted concentration of half-maximal effect.

How did CC(C)c1ccc(-n2nc3ccc(N)cc3n2)cc1 do in these assays?
SARS PLP yeast: -2%; 2A StopGo: -35%; Marburg entry inh: inconclusive; NS1 inh: 2%; LASV entry inh: inconclusive; RE007 growth inh: -14%

How did Cn1c(SCC(=O)NC2CC2)nnc1C1CC1 do in these assays?
SARS PLP yeast: 14%; 2A StopGo: -18%; Marburg entry inh: -2%[46.1 µM]; NS1 inh: 11%; LASV entry inh: 0%[46.1 µM]; RE007 growth inh: 11%

How did COC(=O)c1sccc1NC(=O)CC1C(=O)NCCN1C(=O)Nc1ccc(F)cc1F (stereo not drawn) do in these assays?
SARS PLP yeast: -4%; 2A StopGo: -18%; Marburg entry inh: -2%[46.1 µM]; NS1 inh: -4%; LASV entry inh: 9%[46.1 µM]; RE007 growth inh: -9%

What do the screens show for `COc1ccc(F)cc1S(=O)(=O)NCCN1CCOCC1`?
SARS PLP yeast: 8%; 2A StopGo: 38%[activator]; NS1 inh: 23%; RE007 growth inh: -12%

Results for CC(C)c1ccc(NC(=O)CSc2nc(=O)n(Cc3cccnc3)c3c2CCC3)cc1 ?
Cruzain Triton: -5.9%; 2A StopGo: inconclusive; Cruzain noTriton: inconclusive; LASV entry inh: -1%[46.1 µM]

How did Cc1cc(N2C(=O)C(=O)/C(=C(/O)c3ccc(F)cc3)C2c2cccc(Br)c2)no1 (stereo not drawn) do in these assays?
Cruzain Triton: -6.4%; SARS PLP yeast: 0%; 2A StopGo: -10%; Marburg entry inh: 3%; Cruzain noTriton: 14%; NS1 inh: 17%; LASV entry inh: 5%; RE007 growth inh: 0%

What do the screens show for `CC(C)C(=O)Nc1cccc(NC(=S)NC(=O)c2ccccc2Cl)c1`?
Cruzain Triton: -4.2%; SARS PLP yeast: 3%; 2A StopGo: -10%; Marburg entry inh: inconclusive; Cruzain noTriton: 1%; NS1 inh: -11%; LASV entry inh: -4%; RE007 growth inh: -10%

Results for O=C(O)c1cc(S(=O)(=O)NC(CO)C(O)c2ccc([N+](=O)[O-])cc2)ccc1Br (stereo not drawn) ?
SARS PLP yeast: 10%; 2A StopGo: -7%; NS1 inh: 19%; RE007 growth inh: 1%

How did Cc1c(C)c2ccc(OCC(=O)N3CC[C@@]4(O)CCCC[C@H]4C3)c(C)c2oc1=O do in these assays?
SARS PLP yeast: -6%; 2A StopGo: -6%; NS1 inh: 1%; RE007 growth inh: 3%

Results for Cc1ccc(C)c(CN2CCC(CNC(=O)Nc3cccc(Cl)c3C)CC2)c1 ?
SARS PLP yeast: -2%; 2A StopGo: 22%; Marburg entry inh: inconclusive; NS1 inh: -7%; LASV entry inh: inconclusive; RE007 growth inh: 3%

Results for CCC(Sc1nc2ccccc2c2nc(CCc3c(C)n[nH]c3C)nn12)C(=O)Nc1ccc(OC)cc1 (stereo not drawn) ?
Cruzain Triton: 0.6%; 2A StopGo: -18%; Cruzain noTriton: inconclusive; LASV entry inh: -3%[46.1 µM]

How did COC(=O)c1ccccc1CSc1nsc(C)c1C#N do in these assays?
SARS PLP yeast: -1%; 2A StopGo: -16%; NS1 inh: -6%; RE007 growth inh: -6%

What do the screens show for `CCOc1ccc(N2CC(C(=O)Nc3ccccn3)CC2=O)cc1` (stereo not drawn)?
SARS PLP yeast: -1%; 2A StopGo: -1%; Marburg entry inh: -3%[46.1 µM]; NS1 inh: -1%; LASV entry inh: -6%[46.1 µM]; RE007 growth inh: 7%

Results for COc1ccc(CC(=O)Nc2nnc3n2CCS3)cc1OC ?
Cruzain Triton: -0.6%; 2A StopGo: -4%; Cruzain noTriton: 3%; LASV entry inh: -10%[46.1 µM]

What do the screens show for `C=CCNc1nc(-c2ccccc2)nc(-n2ccnc2)n1`?
Cruzain Triton: -1.3%; SARS PLP yeast: -7%; 2A StopGo: -12%; Marburg entry inh: inconclusive; Cruzain noTriton: -20%; NS1 inh: -80%; LASV entry inh: 5%; RE007 growth inh: 17%

How did Cc1ccc(C(=O)N2CCC(C)CC2)cc1S(=O)(=O)N1CCCCC1 do in these assays?
SARS PLP yeast: -1%; 2A StopGo: 21%; Marburg entry inh: -5%; NS1 inh: -4%; LASV entry inh: -17%; RE007 growth inh: 4%

How did CCOC(=O)c1ccc(NC(=S)NC2CCCC2)cc1 do in these assays?
Cruzain Triton: -6.0%; SARS PLP yeast: 3%; 2A StopGo: 23%; Marburg entry inh: 24%; Cruzain noTriton: -13%; NS1 inh: -42%; LASV entry inh: 7%; RE007 growth inh: 1%

Results for CCN(CC)c1ccc(C=C2SC(=S)NC2=O)cc1 ?
2A StopGo: -3%; Marburg entry inh: inconclusive; LASV entry inh: 18%; RE007 growth inh: -10%

Results for CCCOC(=O)C1C2C=CC(C2)C1C(=O)OCC(=O)c1ccccc1 (stereo not drawn) ?
Cruzain Triton: 1.4%; SARS PLP yeast: -12%; 2A StopGo: -7%; Marburg entry inh: 2%; Cruzain noTriton: 0%; NS1 inh: -52%; LASV entry inh: 13%; RE007 growth inh: -1%

Results for CCOC(=O)C1CCCN(S(=O)(=O)c2c(C)[nH]c(C)c2C(=O)N2CCCC2)C1 (stereo not drawn) ?
SARS PLP yeast: 27%; 2A StopGo: -5%; NS1 inh: -1%; RE007 growth inh: 1%

Results for COc1ccc(N(C(=O)c2snc(C(N)=O)c2N)C(C(=O)NC2CCCC2)c2cccs2)c(OC)c1 (stereo not drawn) ?
SARS PLP yeast: -1%; 2A StopGo: -16%; Marburg entry inh: -16%[46.1 µM]; NS1 inh: 25%; LASV entry inh: inconclusive; RE007 growth inh: -6%

What do the screens show for `O=C(CN1C(=O)NC2(CCCCC2)C1=O)N1CCc2ccccc2C1`?
SARS PLP yeast: 2%; 2A StopGo: 8%; NS1 inh: -4%; RE007 growth inh: 0%

How did COc1ccccc1NC(=O)COc1ccccc1 do in these assays?
Cruzain Triton: -1.8%; SARS PLP yeast: -11%; Marburg entry inh: 3%; Cruzain noTriton: -9%; NS1 inh: -55%; LASV entry inh: inconclusive; RE007 growth inh: -16%

Results for CCOc1ccc2c(c1)C(c1ccc(C)cc1)=NNC(c1ccc(OC)cc1)=N2 ?
Cruzain Triton: -2.3%; SARS PLP yeast: -1%; Marburg entry inh: inconclusive; Cruzain noTriton: 16µM*; NS1 inh: inconclusive; LASV entry inh: 3%; RE007 growth inh: -7%

How did CCN(CC(=O)Nc1ccccc1Br)Cc1nc2ccccc2c(=O)[nH]1 do in these assays?
Cruzain Triton: -0.1%; SARS PLP yeast: -9%; 2A StopGo: -6%; Marburg entry inh: -30%; Cruzain noTriton: -2%; NS1 inh: -18%; LASV entry inh: -6%; RE007 growth inh: 12%

What do the screens show for `CCC(Oc1ccccc1)C(=O)Nc1nnc(S(=O)(=O)N2CCCCC2)s1` (stereo not drawn)?
SARS PLP yeast: 0%; 2A StopGo: -30%; NS1 inh: -1%; RE007 growth inh: -1%

What do the screens show for `CCOC(=O)N1CCN(S(=O)(=O)c2ccc(OC)c(Cl)c2Cl)CC1`?
Cruzain Triton: -6.6%; SARS PLP yeast: -5%; 2A StopGo: inconclusive; Cruzain noTriton: 14%; NS1 inh: -39%; LASV entry inh: -20%; RE007 growth inh: 21%

How did O=C(Nc1cccc2ccccc12)N1CCN(c2ccccc2)CC1 do in these assays?
Cruzain Triton: 6.8%; SARS PLP yeast: 1%; 2A StopGo: -16%; Marburg entry inh: -10%; Cruzain noTriton: -5%; NS1 inh: 1%; LASV entry inh: 9%; RE007 growth inh: -18%

How did O=C(Nc1ccc(Br)cc1)C1CC=CCC1C(=O)OCC1CCCO1 (stereo not drawn) do in these assays?
Cruzain Triton: 3.2%; SARS PLP yeast: 1%; 2A StopGo: 4%; Marburg entry inh: 2%; Cruzain noTriton: 7%; NS1 inh: -2%; LASV entry inh: 9%; RE007 growth inh: -2%

What do the screens show for `O=C(Cn1cc(C(F)(F)F)ccc1=O)N1CCN(S(=O)(=O)c2ccccc2)CC1`?
Cruzain Triton: 5.6%; SARS PLP yeast: -5%; 2A StopGo: -13%; Marburg entry inh: 6%; Cruzain noTriton: -7%; NS1 inh: -3%; LASV entry inh: -1%; RE007 growth inh: 15%

What do the screens show for `COc1ccc(C(=O)NC2CCCCC2)cc1S(=O)(=O)N1CCCC1`?
Cruzain Triton: 4.0%; SARS PLP yeast: 2%; 2A StopGo: 48%[activator]; Marburg entry inh: inconclusive; Cruzain noTriton: 0%; NS1 inh: -4%; LASV entry inh: -8%; RE007 growth inh: 0%

How did O=c1oc(-c2cccs2)nc2sc3c(c12)CCCCC3 do in these assays?
Cruzain Triton: -1.7%; SARS PLP yeast: 1%; Marburg entry inh: inconclusive; Cruzain noTriton: -25%; NS1 inh: -5%; LASV entry inh: inconclusive; RE007 growth inh: 10%

Results for CCOc1ccc(C(=O)COC(=O)c2c(-c3ccccc3)noc2C)cc1 ?
SARS PLP yeast: -8%; 2A StopGo: -25%; Marburg entry inh: inconclusive; LASV entry inh: inconclusive; RE007 growth inh: 5%

Results for Cn1c(=O)c2c(SCC(=O)NCc3ccco3)nc(-c3cccc(F)c3)nc2n(C)c1=O ?
Cruzain Triton: 3.6%; 2A StopGo: inconclusive; Cruzain noTriton: -11%; LASV entry inh: 2%[46.1 µM]

How did CCCc1cc(=O)n2[nH]c(NC(=O)c3ccccc3Cl)nc2n1 do in these assays?
Cruzain Triton: -1.2%; 2A StopGo: -17%; Marburg entry inh: 12%[46.1 µM]; Cruzain noTriton: -6%; LASV entry inh: 2%[46.1 µM]

How did CN(CC(=O)NCc1ccncc1)S(=O)(=O)c1ccc(F)cc1 do in these assays?
Cruzain Triton: 2.8%; SARS PLP yeast: 7%; Marburg entry inh: 1%; Cruzain noTriton: 12%; NS1 inh: 7%; LASV entry inh: 17%; RE007 growth inh: -15%

What do the screens show for `CCOc1ccc2c(S(=O)(=O)O)cccc2c1[N+](=O)[O-]`?
2A StopGo: -10%; Marburg entry inh: 10%; LASV entry inh: 16%; RE007 growth inh: 19%

Screens deposited in PubChem by National Center for Advancing Translational Sciences (NCATS).
